Source: PubChem BioAssay
HPGD inh – blocks human HPGD enzyme activity; Potency, µM, for the others: at the highest dose activity change, negative = inhibition, actives largely listed as inhibitors; actives 4.3% (n = 150,000); purified HPGD, NADH fluorescence kinetic, PGE2 substrate; active = well fitted inhibition curve with a large enough effect (not every such curve was filed as active); inconclusive = small, poorly fitted or top-dose-only effect, or another doubt; inactive = no such curve, though single readings can be large or run the other way;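 further: top concentration of the series not given in the record; plate controls included wells without enzyme; inactives centre near -10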
Target sequence (P15428 whole entry, looked up): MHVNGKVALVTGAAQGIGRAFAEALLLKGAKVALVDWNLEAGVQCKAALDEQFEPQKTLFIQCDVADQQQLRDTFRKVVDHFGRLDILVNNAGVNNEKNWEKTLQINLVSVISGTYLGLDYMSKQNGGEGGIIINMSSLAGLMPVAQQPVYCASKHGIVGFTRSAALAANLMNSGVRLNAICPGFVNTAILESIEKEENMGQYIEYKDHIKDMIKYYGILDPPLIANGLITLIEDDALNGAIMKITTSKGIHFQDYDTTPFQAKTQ
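NADH formation kinetics: reaction with 30 uM PGE2 and 1 mM NAD+ (final), 20 nM enzyme, Tris-HCl pH 8 with Tween 20, after 15 min compound preincubation at room temperature. Fluorescence change, last versus first of five reads.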
Active calls of the source: *; ? = inconclusive; & = joins results of further samples. On the % scale 0 is the no-effect control and ±100 the full control effect; potency means the concentration at half of the fitted maximal effect. A portion of the library; the hit share may differ from the screen's.

structure,HPGD inh
O=C(COC(=O)C1CCN(S(=O)(=O)c2ccc3c(c2)OCCO3)CC1)Nc1ccccc1OC(F)F,-12%
Cc1ccc(C(=O)NC(=S)Nc2ccc3[nH]c(=O)[nH]c3c2)cc1C,-12%
Nc1nc(=O)n(C2OC(CO)C(O)C2O)cc1Cl (centres undefined),-5%
COc1ccc(CCNC(=O)Cn2cnc3ccccc3c2=O)cc1OC,-2%
O=C(CSc1ccc(Br)cc1)Nc1ccccc1Oc1ccccc1,-14%
Cc1ccc(NC(=O)COC(=O)C(NS(=O)(=O)c2ccc(Cl)cc2)C(C)O)c(Br)c1 (centres undefined),1%
CCOC(=O)c1c(NC(=O)c2ccccc2N(C)S(=O)(=O)c2ccccc2)sc2c1CCCC2,?
O=C(COC(=O)CNS(=O)(=O)c1ccc2ccccc2c1)Nc1ccccc1Sc1ccccc1,-8%
CC(=O)c1ccc(NC(=O)Nc2ccc3c(c2)N(C)C(=O)CS3)cc1,-11%
CC1(C)SC2c3ccccc3C(=O)N2[C@@H]1C(=O)NCCCN1CCOCC1 (some centres undefined),1%
O=[N+]([O-])c1ccc(N2CCN(CCO)CC2)cc1Sc1nc2ccccc2[nH]1,-14%
Cc1ccc(NC(=S)NCCc2c[nH]c3ccccc23)cc1,1%
CC1=NC(Nc2nc(C)c3ccccc3n2)=NC(C)(C)C1,-4%
CCOc1ccc(N=C(C)c2ccccc2O)cc1,-7%
O=C(CN1CCCC1)N1c2ccccc2Sc2ccccc21,-2%
COc1ccc(CCN2CC34C=CC(O3)C(C(=O)NCc3ccccc3Cl)C4C2=O)cc1OC (centres undefined),-12%
CC1CCN(C(=O)C(C)Sc2nc(-c3ccccc3)cc(C(F)(F)F)n2)CC1 (centres undefined),16µM*
CCOc1ccc(NC(=O)C(c2ccccn2)N(C(=O)CCl)c2ccc(OC)cc2)cc1 (centres undefined),-11%
Cc1ccc(OCCC(=O)Nc2c(C)n(C)n(-c3ccccc3)c2=O)cc1,?
O=C(COC(=O)c1ccccc1N1C(=O)C2C3CCC(C3)C2C1=O)c1ccccc1 (centres undefined),-15%
CCCc1cc(=O)oc2cc(C)cc(OCc3nn[nH]n3)c12,?
CC(C)C(NC(=O)C1CCCCC1)C(=O)Nc1ccc2c(c1)OCCO2 (centres undefined),-10%
CC1=C(C(=O)OCc2ccccc2)C(c2cccnc2)n2ncnc2N1 (centres undefined),7%
O=S(=O)(c1ccc(Cl)cc1Br)N1CCCCC1,-23%
Cc1ccc(N2C(=O)C3ON(c4ccccc4)C(c4ccncc4)C3C2=O)cc1 (centres undefined),-27%

In the list so far, 2 have two or more sulfur atoms:
structure,HPGD inh
CCOC(=O)c1c(NC(=O)c2ccccc2N(C)S(=O)(=O)c2ccccc2)sc2c1CCCC2,?
O=C(COC(=O)CNS(=O)(=O)c1ccc2ccccc2c1)Nc1ccccc1Sc1ccccc1,-8%

For reference, some entries already given.
structure,HPGD inh
O=C(COC(=O)C1CCN(S(=O)(=O)c2ccc3c(c2)OCCO3)CC1)Nc1ccccc1OC(F)F,-12%
Cc1ccc(C(=O)NC(=S)Nc2ccc3[nH]c(=O)[nH]c3c2)cc1C,-12%
Nc1nc(=O)n(C2OC(CO)C(O)C2O)cc1Cl (centres undefined),-5%
COc1ccc(CCNC(=O)Cn2cnc3ccccc3c2=O)cc1OC,-2%
O=C(CSc1ccc(Br)cc1)Nc1ccccc1Oc1ccccc1,-14%

Remaining list, next part
structure,HPGD inh
CC1CCN(CC(=O)c2c[nH]c3ccccc23)CC1,-2%
Cn1c(=O)c2c(nc(SCC(=O)Nc3ccccc3N3CCCCC3)n2C)n(C)c1=O,-4%
COc1ccc(CCNC(=O)C(=O)NCC2OCCN2S(=O)(=O)c2ccc(Br)cc2)cc1 (centres undefined),-7%
C[C@H](CC(=O)O)C(C(=O)O)C(=O)O,0%
C=CCSc1nc(N)c(C(=O)Nc2ccccc2OC)cc1C(=O)Nc1ccccc1,?
COC(=O)c1cc(Br)c(=O)n(Cc2ccco2)c1,-4%
CN(C)CCN(Cc1cccs1)c1ccccn1,-20%&0%&-11%&-5%
Nc1ccc(S(=O)(=O)Nc2cnc3ccccc3n2)cc1,-4%&-26%&-8%
CCC(C)(C)NC(=O)C(c1ccccc1F)N(Cc1ccco1)C(=O)Cn1nnc2ccccc21 (centres undefined),-2%
COc1ccc2c(c1)C(=O)[C@@H](OC(=O)NCCOc1ccccc1)[C@H](c1ccc(OC)c(Br)c1)O2,-11%
Cc1ccc(S(=O)(=O)c2nnn3c2nc(Nc2cccc(C)c2)c2ccccc23)cc1,?
COc1ccccc1-n1c2c(cc(C(=O)N3CCC(C)CC3)c1=O)C(=O)CC(C)(C)C2,-7%
CNC(=S)NCCN1CCOCC1,-9%
Nc1c(N2CCN(c3ccccc3)CC2)c2ccccc2oc1=O,-16%
Cc1cc(C)n(-c2nc(NCc3cccnc3)c3c4c(sc3n2)COC(C)(C)C4)n1,?
CCC1CCc2c(sc(NC(=O)c3ccoc3C)c2C(N)=O)C1 (centres undefined),?
COc1ccc(NC(=O)CSc2nc(NS(=O)(=O)c3ccccc3)cc(=O)[nH]2)cc1,-2%
C=CCn1c(N)c(-c2nc3ccccc3n2C)sc1=S,-17%
C[C@H](NCCc1ccc(O)cc1)[C@@H](O)c1ccc(O)cc1,-7%
O=C(Nc1ccc([N+](=O)[O-])cn1)c1ccc(Br)o1,-7%
Cc1ccc(OCC(=O)Nc2cccc(C)n2)c(C)c1,-8%
Cc1cc(OCC(=O)NCCCN(C)C)cc(C)c1Br,-14%
O=C(c1cnn2c(C(F)F)cc(C3CC3)nc12)N1CCc2ccccc2C1,?
O=C(COc1ccc(Cl)cc1Cl)NCc1ccco1,?
c1ccc(C2(c3ccccc3)OCC(Cn3cncn3)O2)cc1 (centres undefined),-8%
O=C(c1ccccc1)c1cnc(Nc2ccc(Cl)c(Cl)c2)s1,-2%
CC(=O)c1cccc(NC(=O)c2cc(C)no2)c1,-16%
COC(=O)c1cc(Br)ccc1NC(=O)Nc1ccccc1,-10%
Cc1ccc(C2=N/C(=C\c3cccs3)C(=O)N2Nc2ccccc2)cc1,-15%
Cc1ccc2sc(NC(=O)CN3C(=O)c4ccccc4C3=O)nc2c1C,-7%
CCCCn1c(SCc2nc(N)nc(Nc3ccccc3C)n2)nc2ccccc2c1=O,-14%
CC(C)NC(=O)CCCOc1ccc(Cl)cc1Cl,14µM*
CCC(=O)N1CCc2cc(S(=O)(=O)CCC(=O)NCc3ccc4c(c3)OCO4)ccc21,-7%
Cc1cc(C)c(NC(=O)CN2CCN3CCCC3C2)c(C)c1 (centres undefined),-7%
O=C(Nc1ccccc1)N1CCN(c2nc3ccccc3s2)CC1,-13%
Cc1c(C(=O)NCc2cccnc2)oc2c1C(=O)CC(C)(C)C2,-4%
Cc1ccc(Cl)cc1N(CC(=O)NC1CCCCC1)S(C)(=O)=O,-5%
O=C(COc1cccc(Oc2ccccc2)c1)Nc1ccc(SC(F)F)cc1,-15%
CC(C)N1CC(C(=O)Nc2ccccc2)CC1=O (centres undefined),4%
N#C/C(=C\c1cc(Cl)ccc1O)C(=O)NC1CCCCC1,-10%
O=c1cc[nH]c2ccc(Cl)cc12,-18%
O=C1CCC(c2ccccc2)=NN1c1nc2ccccc2s1,-11%
COc1ccc(C(=O)N2CCN(C3CCN(Cc4ccccc4)CC3)CC2)cc1OC,4%
COc1ccc2c(c1)SC1=NCCS(=O)(=O)N12,-1%
COc1cc(/C=N/NC(=O)/C(=C\c2ccc3c(c2)OCO3)NC(=O)c2ccccc2)ccc1O,-21%
Cc1cc2oc(=O)cc(CSc3nc(N)cc(N)n3)c2cc1C,?
Cc1onc(COc2ccccc2O)c1Br,-23%
CCCCOc1ccc(C(=O)NCC2(c3ccc(OC)cc3)CCOCC2)cc1,-7%
CCOC(=O)c1cnn(CCOC(=O)c2ccccc2F)c1NC(=O)c1ccccc1F,-7%
O=C(CCc1ccccc1)Nc1ccc(N2CCOCC2)c(Cl)c1,-11%

(more compounds)
structure,HPGD inh
CCN(CC)S(=O)(=O)c1ccc(C)c(NC(=O)COC(=O)CNC(=O)c2ccc(C(C)(C)C)cc2)c1,?
Cc1ccc(C(=O)CSc2cc(C)nc(SCC(=O)c3ccccc3)n2)cc1,?
Cc1ccc(NC(=O)N2N=C(c3ccc(F)cc3)CC2c2ccc(F)cc2)cc1 (centres undefined),?
COC(=O)/C(C#N)=C/c1ccc(OC(=O)c2ccccn2)cc1,?
C=CCOc1ccc(/C=N/NC(=O)C(C)Sc2ccccn2)cc1OCC (centres undefined),-21%
O=C(NCC1CCCC(CNC(=O)N2CCc3ccccc32)C1)N1CCc2ccccc21 (centres undefined),-18%
C#CCSc1nnc(-c2c[nH]c3ccccc23)n1C,-4%
CCCOc1ccc(C(C)=O)cc1CC(C(N)=O)C(N)=O,-15%
CCOC(=O)N1CCN(c2c(NCCCN3CCCCCC3)c(=O)c2=O)CC1,-10%
CN(C)C(=O)c1ccc(NC(=O)c2cccnc2)cc1,32µM*
O=C(N/N=C/c1ccc2c(c1)OCO2)c1ccc2c(c1)OCCO2,-21%
Cc1ccc(C)c(/C(O)=C2/C(=O)C(=O)N(CCN3CCOCC3)C2c2ccco2)c1 (centres undefined),?
N#CCCN1CCN(S(=O)(=O)c2ccc(S(=O)(=O)NC3CCCC3)cc2)CC1,-4%
NC1(C(=O)O)C[C@@H](C(=O)O)[C@H](C(=O)O)C1,-2%&-2%
COc1ccc(-c2nc3ccccn3c2NCc2ccc3c(c2)OCO3)cc1,?
CCOc1ccc2nc(N3CCCCCC3)sc2c1,-14%
Cc1c(N2C(=O)c3ccccc3C2=O)c(=O)n(-c2ccccc2)n1C,-9%
CCOc1ccc(-c2nnc(-c3ccco3)o2)cc1OCC,?
CC(C)N(CCNC(=O)c1cn(C)c2ccc(S(=O)(=O)N(C)C)cc2c1=O)Cc1ccccc1,-18%
COc1cc(C(=O)OCC(=O)Nc2cc(C)on2)cc(OC)c1OC,-8%
CCN1C(=O)C2C(c3ccc(O)c(OC)c3)NC(C)(C(=O)OC)C2C1=O (centres undefined),2%
O=C(CN1CCN(c2ncccn2)CC1)Nc1ccccc1-n1cccc1,-14%
C/C(CC1(O)C(=O)N(Cc2ccccc2)c2ccccc21)=N\O (centres undefined),-16%
CCOc1cc(C(=O)Nc2cc(C)ccn2)cc(OCC)c1OCC,-9%
CC(=O)c1cccc(N(C(=O)CS(=O)CC(=O)Nc2ccc(F)cc2)C(C(=O)NC2CCCCC2)c2ccc(C)o2)c1 (centres undefined),2%
CN(C(=O)COC(=O)c1sc2ccccc2c1Cl)C1CCCCC1,-14%
O=c1n(Cc2ccccc2)c2cc(Cl)cnc2n1Cc1ccccc1,?
CCOC(=O)c1[nH]c2ccccc2c1NC(=S)Nc1ccccc1,-15%
Cn1cccc1CC(=O)N/N=C/c1cccc2ccccc12,16µM*
O=C(CSCC(=O)N1CCOCC1)Nc1nc(-c2ccc3c(c2)OCO3)cs1,-10%
Cc1ccccc1-n1c(SCC(=O)N2CCN(c3ccccc3)CC2)nnc1-c1ccncc1,-7%
Cc1cccc(C)c1-n1c(C)cc(/C=N\NC(=O)CC(=O)NC2CCCCC2)c1C,0%
O=C(Cn1nc(Cc2cccnc2)c2ccccc2c1=O)N1CCN(C(=O)c2ccco2)CC1,-4%
CCOC(=O)CCCc1c[nH]c2ccccc12,-9%
CCc1nc2ccccc2n(CCOCCn2c(=O)c(CC)nc3ccccc32)c1=O,-12%
NCCCC(N)(C(=O)O)C(F)F (centres undefined),-18%&-4%
COC(=O)c1ccc(N2CCN(c3ccccc3)CC2)c(NC(=O)C2CC2)c1,?
CCCn1c2ccccc2c2nnc(SCC(=O)OCC)nc21,-29%
CCn1c(-c2ccccc2)c(C(=O)O)c2ccccc21,?
CSc1ccc(-c2nnn(Cc3ccccn3)n2)cc1,-12%
C=CCn1c(Cc2ccc(OC)cc2)nnc1SCC(=O)c1cccc([N+](=O)[O-])c1,-28%
O=C(O)C1CC=CCC1C(=O)Nc1cccc(Cl)c1Cl (centres undefined),-22%
Nn1c(COc2ccccc2)nnc1SCC(=O)O,2%
CCn1ncc(Cl)c1C(=O)Nc1cc(Cl)ccc1Cl,-15%
Cc1ccc(NC(=O)CSc2ccc(-c3ccc4c(c3)OCO4)nn2)cc1F,-5%
Cc1ccc2c(c1)cc(CN(Cc1ccc3c(c1)OCO3)C(=O)c1ccccc1)c1nnnn12,?
CC1CCN(S(=O)(=O)c2csc(C(=O)Nc3ccccc3)c2)CC1,-9%
Cn1c(N2CCC(C(N)=O)CC2)nc2c1c(=O)n(Cc1cccc(Br)c1)c(=O)n2C,-20%
COc1ccc(OC)c(S(=O)(=O)N(C)CC(=O)Nc2cc(Cl)ccc2OC)c1,-6%
CCOC(=O)c1ccc(NC(=O)NCc2ccncc2)cc1,-9%
CC1CC(C)CN(C(=S)Nc2ccc(OC(F)F)cc2)C1 (centres undefined),-4%
O=C(c1ccccc1-c1ccccc1)N1CCCC1,-5%
Cc1cccc(NC(=O)Cn2cc(C(=O)c3ccco3)c3ccccc32)c1,-11%
